MARV entry inh: Marburg virus entry inhibition; hit rate 1.8% among 300,000; Potency, µM (top dose mostly 37.8 µM), inactives show at the highest dose activity change, negative = inhibition, most hits filed as inhibitors; AID 540276; Marburg virus pseudotyped entry inhibition, cell reporter; control for the full effect not named in the record; about a third of the inactives were read at about 46 µM; active = well fitted inhibition curve with a large enough effect; inconclusive = small, poorly fitted or top-dose-only effect, or effect the other way; inactive = flat fitted curve, though single readings scatter; tested in HEK293 cells; about a fifth of its hits are not listed in these tables; also: % is scaled to controls: 0 for no effect and ±100 for the full control effect; luciferase read-out
2A StopGo: FMDV 2A StopGo reporter, luciferase signal; Potency, µM (doses to about 57.9 µM), inactives show top-dose signal change, negative = less light; hit rate 1.2% among 410,000; human cells with a luciferase reporter of 2A StopGo recoding; control for the full effect not named in the record; active = well fitted falling curve with a large enough effect; inconclusive = small, poorly fitted or top-dose-only effect; inactive = no such curve, though single readings can be large or run the other way; tested in HEK293T cells; also: % is scaled to controls: 0 for no effect and ±100 for the full control effect; nearly all actives have a fitted effect of over 45% in size; luciferase light after 4 h
RE007 growth inh: less growth of the S. pombe RE007 Vpr strain | S. pombe RE007 Vpr strain, BacTiter-Glo ATP luminescence, 24 h; control for the full effect not named in the record | Potency, µM (highest dose often 92.2 µM), for the others: at the highest dose activity change, negative = less growth | hit rate 0.21% among 360,000 | AID 651644; active = well fitted falling curve with a large enough effect; inconclusive = small, poorly fitted or top-dose-only effect; inactive = no such curve, though single readings can be large or run the other way;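 also: % is scaled to controls: 0 for no effect and ±100 for the full control effect; nearly all actives have a fitted effect of over 50% in size; the assay follows cell death caused by Vpr and the record does not say whether a fall means rescue or toxicity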
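Fission yeast strain RE007, carrying one chromosomally integrated HIV-1 vpr copy, was seeded at OD 0.01 in PMG+AL medium with 23 nL pinned compound. After 24 h at 30 °C and 99% humidity, viability was read by BacTiter-Glo luminescence.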
Cruzain inh Det: cruzain (T. cruzi) inhibition with detergent. Potency, µM, for the others: max response, negative = inhibition, hits mostly inhibitors. purified cruzain, Z-FR-AMC fluorescence, 0.01% Triton. AID 1478. hit rate 0.43% among 200,000;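 also: plate controls were neutral wells for no effect and buffer without enzyme for full effect; nearly all actives have a fitted effect of over 40% in size; top concentration of the series not given in the record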
Target sequence (P25779 123-467 limits assumed): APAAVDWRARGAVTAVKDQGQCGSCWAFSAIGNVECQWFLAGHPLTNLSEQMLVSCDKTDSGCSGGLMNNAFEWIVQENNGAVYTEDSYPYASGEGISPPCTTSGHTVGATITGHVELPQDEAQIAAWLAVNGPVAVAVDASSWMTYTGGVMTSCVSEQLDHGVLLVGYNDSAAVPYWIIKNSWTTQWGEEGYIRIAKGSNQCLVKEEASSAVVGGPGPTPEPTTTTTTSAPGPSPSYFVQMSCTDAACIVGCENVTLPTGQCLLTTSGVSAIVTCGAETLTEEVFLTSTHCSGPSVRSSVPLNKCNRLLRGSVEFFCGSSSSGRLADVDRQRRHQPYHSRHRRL
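Cysteine protease activity tested under reducing, mildly acidic conditions (100 mM sodium acetate pH 5.5, 5 mM DTT) plus 0.01% Triton X-100. Cruzain 1.5 nM; substrate Z-FR-AMC 2 uM; 15 min compound preincubation at room temperature.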
NS1 function inh: influenza NS1 inhibition. S. cerevisiae slowed by influenza A NS1, growth recovery by OD600. Potency, µM (titrated, usually from 46.1 µM), for the others: at the top dose activity, positive = more growth. hit rate 0.4% among 270,000. AID 2326; active means well fitted rising curve with a large enough effect; inconclusive means small, poorly fitted or top-dose-only effect; inactive means no such curve, though single readings can be large or run the other way; also: nearly all actives have a fitted effect of over 50% in size
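Compounds were scored for reversing the slow growth caused by influenza A NS1 in S. cerevisiae, measured by optical density at 600 nm. Assay medium contained 2% galactose at pH 6.0; NS1-free yeast of the same strain were the positive control.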
LASV entry inh: Lassa virus entry inhibition | Lassa virus pseudotype entry inhibition, cell reporter; control for the full effect not named in the record | Potency, µM (series often up to 37.9 µM), without a hit: top-dose activity change, negative = inhibition, hits mostly inhibitors | hit rate 1.2% among 300,000; active means well fitted inhibition curve with a large enough effect; inconclusive means small, poorly fitted or top-dose-only effect, or effect the other way; inactive means flat fitted curve, though single readings scatter; tested in HEK293 cells; also: % is scaled to controls: 0 for no effect and ±100 for the full control effect; nearly all actives have a fitted effect of over 50% in size; luciferase read-out
Cruzain noTriton: blocks cruzain activity in detergent-free assay | P25779 | purified cruzain, Z-FR-AMC fluorescence, no detergent | Potency, µM, for the others: max response, negative = inhibition, actives largely listed as inhibitors | hit rate 2.3% among 200,000;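 also: plate controls were enzyme without inhibitor for no effect and buffer without enzyme for full effect; nearly all actives have a fitted effect of over 40% in size; top concentration of the series not given in the record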
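Purified cruzain at 1.5 nM, pre-incubated 15 min with compound at room temperature in 100 mM sodium acetate pH 5.5, 5 mM DTT, 0.00005% Triton X-100. Reaction started with 2 uM Z-FR-AMC; AMC fluorescence increase over 60 s gives rate.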
SARS PLpro yeast: inhibitors of SARS-CoV papain-like protease in yeast; S. cerevisiae expressing SARS-CoV PLpro, growth rescue; control for the full effect not named in the record; Potency, µM (doses to about 32.9 µM), for inactives: at the top dose activity, positive = growth rescue; hit rate 0.19% among 330,000; AID 485353; active means well fitted rising curve with a large enough effect; inconclusive means small, poorly fitted or top-dose-only effect; inactive means no such curve, though single readings can be large or run the other way; also: 0% is about no effect; nearly all actives have a fitted effect of over 55% in size; growth read by luminescence after 48 h
Active calls of the source: *; ? = inconclusive; / = not tested or not shown; & = joins results of further samples; [ ] = another dose, or the depositor's remark. Unless noted, calls follow the shape of the dose curve; as a rule, active = well fitted curve in the direction sought with a large enough effect; inconclusive = small, poorly fitted or top-dose-only effect, or another doubt; inactive = no such curve, though single readings can be large; an effect the other way counts as inactive or inconclusive. Potency is read from the fitted curve at half-maximal effect.

SMILES	MARV entry inh	2A StopGo	RE007 growth inh	Cruzain inh Det	NS1 function inh	LASV entry inh	Cruzain noTriton	SARS PLpro yeast
CCN=C1SC(CC(=O)NC(N)=O)C(=O)N1CC (stereo not drawn)	26%	-14%	7%	-0.9%	2%	0%	-3%	20%
COc1ccc(CN2CCN(C(=O)c3ccc(-c4ccccc4)cc3)CC2)c(OC)c1OC	?	-28%	-8%	/	/	-2%[46.1 µM]	/	1%
Cc1ccc2nc(-c3cccc(S(=O)(=O)N4CCCC4)c3)cn2c1	/	9%	1%	/	?	/	/	1%
CCOc1ccccc1N(CC(=O)NC(C)(C)C)C(=O)CCC(=O)Nc1nccs1	/	1%	-7%	/	8%	/	/	-4%
Cc1ccc(S(=O)(=O)Nc2ccc(C(=O)Nc3cc(C)on3)cc2)cc1	?	103%[activator]	3%	-5.5%	-5%	4%	-1%	-12%
O=C(CCCC(=O)N1CCN(c2ccccc2F)CC1)c1ccccc1	/	75%[activator]	17%	/	-20%	/	/	-7%
Cc1cc(C)n(-c2ccc(Cl)c(C(=O)O)n2)n1	?	-17%	16%	8.3%	-10%	16%	0%	-2%
N#Cc1c(N2CCCCC2)nc(N2CCCCC2)c2c1CCN(Cc1ccccc1)C2	?	3%	-18%	-10%	-5%	?	-13%	-1%
CN(C)S(=O)(=O)c1ccc(Cl)c(NC(=O)COC(=O)CCC2CCCCC2)c1	23%	-19%	-5%	/	/	2%	/	-2%
CCN(CC)C(=S)Nc1ccc(OC(F)F)cc1	2%	49%[activator]	-19%	/	1%	9%	/	-1%
Cc1ccc(S(=O)(=O)NCC(=O)N(CC(=O)NCc2ccco2)Cc2ccccc2)cc1	-2%	23%	19%	/	-2%	-9%	/	2%
O=c1c2ccccc2nnn1CSc1nnc(-c2cccc(S(=O)(=O)N3CCCCC3)c2)o1	-14%&-14%	2%	11%	1.8%	?	?	-14%	4%
CCCn1c(NC(=S)Nc2ccccc2)nc2ccccc21	?	22%	30%	3.8%	-31%	-5%	6%	?
CC(C)N(C(=O)N1CCC(c2nc(-c3ccncc3)no2)CC1)C(C)C	-21%	?	8%	7.7%	1%	-25%	14%	-2%
CC(C)c1ccc(NC(=O)CCNS(=O)(=O)c2ccc3c(c2)oc(=O)n3C)cc1	4%[46.1 µM]	-2%	/	0.7%	/	?	16%	/
CCOC(=O)CNC(c1ccccc1)c1cc(Br)ccc1NC(=O)c1cccc(Cl)c1 (stereo not drawn)	/	-11%	/	-5.4%	/	?	-22%	/
Cc1cccc(-n2c(-c3ccccc3)cn3c4c(=O)[nH]c(=O)n(C)c4nc23)c1	-2%[46.1 µM]	-3%	/	0.3%	/	?	5%	/
CCCN(Cc1cc2cc(C)ccc2[nH]c1=O)C(=O)c1ccccn1	/	-12%	5%	/	0%	/	/	0%
CCN1C(=O)C(CC(=O)Nc2ccc(OC)cc2)N(CCCN2CCN(c3ccc(OC)cc3)CC2)C1=S (stereo not drawn)	?	-20%	-4%	/	/	?	/	4%
O=C(N[C@H](Cc1ccc(Cl)cc1)C(=O)O)OCC1c2ccccc2-c2ccccc21	/	-14%	-10%	/	16%	/	/	-2%
O=C(/C=C/c1ccncc1)c1cc(Cl)ccc1O	-2%[46.1 µM]	7%	-19%	/	2%	-23%[46.1 µM]	/	-4%
CCC(=O)N1CCc2cc(Br)cc(S(=O)(=O)CCC(=O)NCCc3cccc(C)c3)c21	/	-1%	/	-2.9%	/	10%[46.1 µM]	-12%	/
Cn1nc(OCCOc2ccccc2)ccc1=O	-10%	2%	0%	4.4%	-7%	3%	-3%	-3%
CC1CCN(CC(=O)NC2CCCCC2)CC1	6%	9%	20%	/	2%	11%	/	-5%
CCOC(=O)c1[nH]cnc1C(=O)Nc1ccccc1OC	-18%	-2%	0%	/	3%	-2%	/	-1%
CCOc1cc(OCC)cc(C(=O)NC(=S)Nc2cccc(C(F)(F)F)c2)c1	10%	-23%	47%	0.6%	11%	22%	-9%	3%
Cc1ccnc(NC(=O)CCC(=O)N(CC(=O)NCc2ccc(F)cc2)c2cccc(F)c2)c1	-6%[46.1 µM]	8%	-19%	/	4%	-18%[46.1 µM]	/	0%
CN(CC(=O)Nc1ccc(Cl)cc1)C(=O)CNC(=O)c1ccc2ccccc2c1	?	31%[activator]	10%	/	-1%	-1%	/	6%
CC(NC(=O)CCc1c[nH]c2ccccc12)c1ccccc1 (stereo not drawn)	/	2%	-20%	/	12%	/	/	-11%
CCc1ccc(NC(=O)CC2NCCNC2=O)cc1 (stereo not drawn)	12%	38%[activator]	-1%	2.6%	4%	4%	-5%	5%
CC(=O)Nc1ccc(S(=O)(=O)Nc2nc3ccccc3nc2Nc2cccc(S(N)(=O)=O)c2)cc1	10%[46.1 µM]	-9%	5%	/	3%	-1%	/	0%
CCS(=O)(=O)N1CCCc2cc(C(=O)Nc3cc([N+](=O)[O-])ccc3C)ccc21	-9%[46.1 µM]	28µM*	/	-10.0%	/	-10%[46.1 µM]	-14%	/
CC1CC(C)(C)NC(=S)N1CC(=O)NCc1ccccc1Cl (stereo not drawn)	-4%	3%	-1%	-0.4%	5%	-3%	-4%	7%
NC1=NN=C(c2ccc3c(c2)OCCO3)CS1	11µM*	11µM*	13%	/	/	7.1µM*	/	2%
COc1ccc(CNC(=O)C2CCCN(c3nccc(C)n3)C2)cc1 (stereo not drawn)	14%	-14%	0%	-4.1%	9%	9%	6%	10%
O=C(NCc1ccccc1F)C(=O)NCC(c1ccc2c(c1)OCO2)N1CCOCC1 (stereo not drawn)	/	-3%	/	-2.8%	/	-13%[46.1 µM]	-14%	/
COc1ccc(CN(C)CC(O)COC(c2ccc(OC)cc2)c2ccc(OC)cc2)cc1 (stereo not drawn)	?	-7%	-6%	/	3%	?	/	2%
O=C(CN1CCN(c2ccccc2)CC1)Nc1scc2c1c(=O)oc1ccccc12	/	-8%	-13%	/	1%	/	/	1%
O=C(CCNS(=O)(=O)c1ccccc1)N1CCOCC1	/	7%	1%	/	1%	/	/	?
CCOc1cc(/C=N/Nc2nc(=O)[nH]nc2C)ccc1O	1%[46.1 µM]	25%	-18%	/	/	-5%	/	0%
C=CCOc1ccc(/C=C2\N=C(C)OC2=O)cc1OC	0%	-13%	-16%	/	-2%	?	/	1%
Cn1c(=O)c2c(nc(SCC(=O)NCc3ccc4c(c3)OCO4)n2Cc2ccc(F)cc2)n(C)c1=O	-12%	-23%	7%	-6.1%	11%	-24%	-8%	-2%
CS(=O)(=O)Oc1ccc(Br)cc1/C=C1/N=C(c2ccco2)OC1=O	7%	-2%	31%	-4.4%	19%	5%	-9%	3%
CCC(C(=O)Nc1ccc(C)c(C)c1)n1c(=O)c(C(F)(F)F)nc2ccccc21 (stereo not drawn)	/	-17%	/	3.8%	/	15%[46.1 µM]	1%	/
O=C(N1CCOCC1)C12CC3CC(C1)CC(C(=O)N1CCOCC1)(C3)C2	5%	-12%	-4%	4.6%	3%	3%	-14%	-5%
O=C(CNC(=O)c1ccccc1Cl)NC1CCN(Cc2ccccc2)CC1	?	-4%	-7%	/	-6%	21%[46.1 µM]	/	1%
COc1ccc(OCC(=O)NCC(c2ccc(OC)cc2)N2CCOCC2)cc1 (stereo not drawn)	7%[46.1 µM]	-7%	/	1.7%	/	?	7%	/
CCOc1cccc2c1OC1(C)CC2NC(=O)N1c1cccc(Cl)c1 (stereo not drawn)	-21%	0%	-6%	-2.5%	6%	22%	6%	-1%
O=C(COc1ccc(Br)cc1Cl)c1ccc[nH]1	?	65%[activator]	26%	/	/	?	/	-5%
COc1ccc(Cn2c(=O)[nH]c3cc(C(=O)NCCCN4CCCC4)ccc3c2=O)cc1	?	-1%	13%	-11%	10%	1%	-11%	0%

Continued:
SMILES	MARV entry inh	2A StopGo	RE007 growth inh	Cruzain inh Det	NS1 function inh	LASV entry inh	Cruzain noTriton	SARS PLpro yeast
Cc1ccc(C)c(S(=O)(=O)NCC(=O)OCC(=O)Nc2sccc2C(N)=O)c1	19%	-7%	8%	/	/	7%	/	2%
CC1CCCCN1C(=O)C1CCN(c2nc(-c3ccccc3)nc3c2CCC3)CC1 (stereo not drawn)	/	?	6%	/	-1%	/	/	1%
Cc1cc2cc(C)c3nnc(SCC(=O)N4CCc5ccccc54)n3c2cc1C	-3%	/	/	6.6%	8%	/	-2%	-5%
CCn1ccc2cc(S(=O)(=O)N3CCCN(C(=O)Nc4ccc(C)cc4Cl)CC3)ccc21	/	-2%	/	-5.6%	/	?	-20%	/
Nc1c(C(=O)Nc2cccc(C(F)(F)F)c2)c2ccccn2c1C(=O)c1ccccc1	14%[46.1 µM]	-20%	/	-1.5%	/	1%[46.1 µM]	0%	/
O=c1cc(-c2nn[nH]n2)[nH]c(=O)[nH]1	-3%[46.1 µM]	20%	-6%	/	/	3%[46.1 µM]	/	/
Cc1cccc(C)c1OCCCCn1c(C2CC(=O)N(c3ccc(F)cc3)C2)nc2ccccc21 (stereo not drawn)	?	-7%	/	-7.2%	/	?	9%	/
Cc1ccc2c(CC(=O)OC(C)C(=O)Nc3ncc(Cl)cc3Cl)coc2c1 (stereo not drawn)	6%	7%	11%	-6.4%	-21%	1%	8%	4%
COc1ccc(-c2cc(N)n(S(=O)(=O)c3ccc(F)cc3)n2)cc1OC	/	?	-3%	-9.4%	4%	/	2%	11%
CSc1sc(C(=O)NNC(C)=O)c2c1C=CCC2	/	-9%	-9%	/	0%	/	/	0%
CCCn1nc(NC(C)=O)c2cc3cccc(C)c3nc21	/	-22%	4%	/	4%	/	/	-5%
CN(C)Cc1cc(C(C)(C)C)c(O)c(C(C)(C)C)c1	12%	-11%	-15%	-2.5%	-14%	-10%	-4%	-10%
O=C(Nc1cccnc1)c1cc(-c2ccccc2)on1	-12%	56%[activator]	4%	-2.0%	-13%	5%	-20%	-25%
COc1ccc(-n2ncc3c(N4CCCc5ccccc54)ncnc32)cc1	?	7%	-27%	-14%	-92%	?	19%	0%
CC1CCc2ccccc2N1CC(=O)Nc1cccc(S(=O)(=O)N2CCCC2)c1 (stereo not drawn)	?	-13%	8%	/	/	?	/	0%
CC(=O)c1ccc(OCCCC(=O)N2CCN(S(=O)(=O)c3ccc(C(C)C)cc3)CC2)cc1	-20%	?	-8%	/	/	?	/	-3%

High-throughput results from PubChem BioAssay.
